TRPV1 PAM – potentiators of human vanilloid receptor 1 (TRPV1); Q8NER1; TRPV1-expressing cells, Fluo-8 calcium influx, capsaicin EC20 potentiation; host cell line not named in the record; control for the full effect not named in the record; potentiation, % at 8.33 µM; hit rate 0.02% among 320,000; AID 540277; active means potentiation above 80%; inconclusive means 30% to 80%; inactive means below 30%; also: 0% is about no effect
Target sequence (Q8NER1 whole entry, looked up): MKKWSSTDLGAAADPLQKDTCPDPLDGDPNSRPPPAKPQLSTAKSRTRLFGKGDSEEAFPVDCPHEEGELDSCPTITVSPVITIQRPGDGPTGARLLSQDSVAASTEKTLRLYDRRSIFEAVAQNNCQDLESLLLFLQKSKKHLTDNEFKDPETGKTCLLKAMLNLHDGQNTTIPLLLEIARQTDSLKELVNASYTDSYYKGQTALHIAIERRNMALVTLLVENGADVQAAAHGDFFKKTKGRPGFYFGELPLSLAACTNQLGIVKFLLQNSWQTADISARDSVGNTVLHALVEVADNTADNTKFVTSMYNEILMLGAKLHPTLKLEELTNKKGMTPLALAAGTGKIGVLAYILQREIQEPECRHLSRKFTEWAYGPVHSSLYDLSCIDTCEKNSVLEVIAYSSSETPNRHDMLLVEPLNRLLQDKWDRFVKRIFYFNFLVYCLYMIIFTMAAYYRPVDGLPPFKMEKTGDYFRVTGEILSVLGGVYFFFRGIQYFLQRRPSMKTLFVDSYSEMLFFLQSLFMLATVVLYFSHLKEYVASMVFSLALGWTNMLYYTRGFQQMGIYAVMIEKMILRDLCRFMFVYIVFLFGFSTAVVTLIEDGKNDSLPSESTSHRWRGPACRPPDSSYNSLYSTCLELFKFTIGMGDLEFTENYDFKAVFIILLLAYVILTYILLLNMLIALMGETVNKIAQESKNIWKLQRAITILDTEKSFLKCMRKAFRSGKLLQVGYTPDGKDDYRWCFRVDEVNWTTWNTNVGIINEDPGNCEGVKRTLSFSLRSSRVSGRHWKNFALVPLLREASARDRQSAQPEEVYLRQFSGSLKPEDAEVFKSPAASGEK
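TRPV1-expressing cells were cultured overnight at 35.5C and loaded with Fluo-8 calcium dye for 40 to 90 min at room temperature. After a 10 s baseline, compound was added and calcium influx was read kinetically for 3 min (ex 480/em 520 nm).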
gsp agonist – gsp mutant agonism | gsp mutant cells, cAMP HTRF, 30 min; control for the full effect not named in the record | Potency, µM (highest dose often 76.9 µM), inactives show at the top dose activation (cAMP increase), usual class: activators | hit rate 0.13% among 340,000 | AID 624287; active = well fitted activation curve with a large enough effect; inconclusive = small, poorly fitted or top-dose-only effect, or another doubt; inactive = no such curve, though single readings can be large or run the other way; cell line not stated here;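 also: phosphodiesterase inhibitor Ro 20-1724 added with compounds to block cAMP breakdown; potency is read from the fitted curve at half-maximal effect; nearly all actives have a fitted effect of over 60% in size; about a fifth of the inactives were tested at one dose only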
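Cells stably selected in G418 were plated at 2000/well, grown 16-24 hr, then given compounds in DMSO with the PDE inhibitor […] (300 uM solution added) for 30 min at 37C; cAMP was read by HTRF.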
CtBP-E1A inh – blocks the CtBP interaction with E1A | AlphaScreen GST-E1A/His-CtBP binding, 1536-well; stronger effect = lower value; control for the full effect not named in the record | hit rate 0.49% among 340,000 | activity change, % (concentration not given with the values); in the data active means activity change below about -65%; inconclusive means about -30% to -65%; inactive means above about -30%; also: % is scaled to controls: 0 for no effect and ±100 for the full control effect
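In 5 uL wells, 23 nL compound meets equimolar GST-E1A and His-CtBP (5X stock 125 nM each) for 2 h, 37 °C. Beads (5X, 50 ug/mL) then 1 h, 37 °C, dark.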
gsp antag – gsp mutant antagonism. Potency, µM (highest dose often 76.9 µM), without a hit: top-dose activity change, negative = inhibition, hits mostly inhibitors. AID 624288. gsp-mutant cells, cAMP HTRF, 30 min; control for the full effect not named in the record. hit rate 0.4% among 340,000; active = falling curve of any shape with a large fitted effect; inconclusive = falling curve, mostly with a smaller effect; inactive = flat or rising curve; cell line not stated here;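 also: intracellular cAMP measured with PDE inhibitor Ro 20-1724 present during compound exposure; potency is read from the fitted curve at half-maximal effect; % is scaled to controls: 0 for no effect and ±100 for the full control effect; nearly all actives have a fitted effect of over 65% in size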
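G418-selected cells were plated in DMEM/10% FBS for 16-24 h at 37C, then treated with compounds plus the PDE inhibitor […] (300 uM solution added) for 30 min at 37C. Intracellular cAMP was measured by HTRF after 30 min lysis at room temperature.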
Menin-MLL FL inh – menin-MLL binding inhibition, fluorescein peptide. Fluorescence polarization, fluorescein-MLL peptide displacement from menin. FP activity change, % at 61.4 µM. 290,000 tested, under 10 active; inconclusive = falling polarisation curve, or a change in total fluorescence; inactive = total fluorescence flat and polarisation flat or rising; no compound was filed as active; the % refers to the polarisation; negative = inhibition;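 also: % of control where 0% means no effect; inhibitors lower the polarisation; unlabelled MLL peptide was the positive control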
Sfp inh – blocks B. subtilis Sfp PPTase activity. Biochemical Sfp PPTase activity, qHTS. AID 1490. Potency, µM, for inactives: max response, negative = inhibition, hits mostly inhibitors. Q9F4F7. hit rate 3.5% among 310,000; active = well fitted inhibition curve with a large enough effect; inconclusive = small, poorly fitted or top-dose-only effect, or another doubt; inactive = no such curve, though single readings can be large or run the other way;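 also: the enzyme is Sfp with the accession as filed and its product quenches rhodamine fluorescence; potency is read from the fitted curve at half-maximal effect; 0% = enzyme reaction without inhibitor and -100% = no enzyme wells; top concentration of the series not given in the record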
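Fluorescence-quenching assay: 15 nM Sfp-PPTase preincubated 15 min at room temperature with compound, then 5 uM rhodamine-CoA and 12.5 uM BHQ-2-labelled YbbR peptide added. Fluorescence (ex 525/em 598 nm) read at start and after 30 min; difference gives rate.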
ClpP mod – qHTS Assay for Activators of ClpP | ATP-dependent Clp protease proteolytic subunit (Bacillus subtilis (strain 168)), P80244 | purified B. subtilis ClpP, FRET peptide cleavage, 20 min | Potency, µM (top dose mostly 57.5 µM), inactives show at the highest dose activity change, negative = active | hit rate 1.9% among 340,000; active = well fitted falling curve with a large enough effect; inconclusive = small, poorly fitted or top-dose-only effect; inactive = no such curve, though single readings can be large or run the other way; also: potency is read from the fitted curve at half-maximal effect; the source files actives as falling curves though it sought activators and does not explain the sign; nearly all actives have a fitted effect of over 65% in size; many hits overshoot -100%
Target sequence (P80244 whole entry, looked up): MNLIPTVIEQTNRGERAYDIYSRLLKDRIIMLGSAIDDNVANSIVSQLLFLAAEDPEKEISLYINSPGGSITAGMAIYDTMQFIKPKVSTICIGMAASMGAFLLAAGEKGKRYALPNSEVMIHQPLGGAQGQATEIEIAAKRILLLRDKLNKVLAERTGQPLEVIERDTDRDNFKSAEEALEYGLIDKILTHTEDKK
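Purified B. subtilis ClpP, 10 microg/mL final in Tris/HCl pH8 with KCl, BSA, glycerol and Tween-20, cleaved an Abz/nitrotyrosine-quenched decapeptide. Fluorescence (ex 320, em 430) was read at 0 and 20 min at room temperature. Delta was normalized to 5.8 microM ADEP and DMSO/no-enzyme controls.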
An asterisk follows results filed as active; & = joins results of further samples; [ ] = another dose, or the depositor's remark.

Screening CCOc1ccc(S(=O)(=O)Nc2ccc(S(=O)(=O)N3CCCC3)cc2)cc1 returned TRPV1 PAM 2, gsp agonist -52%[inhibitor], CtBP-E1A inh 7, gsp antag -3%, Menin-MLL FL inh -5.0, Sfp inh 13% and ClpP mod 0.6%.
`CCCCn1c(-c2ccccc2)cnc1SCC(=O)NCCc1ccc(OC)c(OC)c1` gave TRPV1 PAM -7, gsp agonist -79%[inhibitor], CtBP-E1A inh 4, gsp antag -18%, Menin-MLL FL inh 3.1, Sfp inh 5% and ClpP mod -2.3%.
Screening O=C(NCc1ccco1)C1CCC(N2C(=O)C3C4CCC(C4)C3C2=O)CC1 (stereo not drawn) returned TRPV1 PAM 5, gsp agonist -17%[15.4 µM], CtBP-E1A inh -19, gsp antag 21%, Menin-MLL FL inh 5.1 and Sfp inh -4%.
For Cc1nc(C(=O)NC2CCCCC2)sc1C1(C)CC(c2cccc([N+](=O)[O-])c2)=NO1 (stereo not drawn) the results were TRPV1 PAM -8, gsp agonist inconclusive, CtBP-E1A inh -19, gsp antag inconclusive, Menin-MLL FL inh 0.5, Sfp inh 6% and ClpP mod 1.2%.
`Cc1cc(C(=O)N(C2CCCCC2)C2CCCCC2)no1` gave TRPV1 PAM -14, gsp agonist -5%, CtBP-E1A inh -17, gsp antag -14%, Menin-MLL FL inh 2.7, Sfp inh 10% and ClpP mod -3.8%.
For O=C(CCS(=O)(=O)c1ccc(Br)s1)NC1CCCC1 the results were TRPV1 PAM -14, gsp agonist -14%, CtBP-E1A inh 0, gsp antag 11%, Menin-MLL FL inh -1.8, Sfp inh 26% and ClpP mod -1.8%.
For Cc1ccc(-c2nnc(N3CC(C)OC(C)C3)c3ccccc23)cc1 (stereo not drawn) the results were TRPV1 PAM -15, gsp agonist -2%[15.4 µM], CtBP-E1A inh -11, gsp antag -36%, Menin-MLL FL inh 1.3 and Sfp inh -14%.
Screening O=C(CNC(=O)c1cccnc1)N=Nc1c(O)[nH]c2c(Br)cc(Br)cc12 returned TRPV1 PAM -6, gsp agonist -45%[inhibitor], CtBP-E1A inh 10, gsp antag 5%, Menin-MLL FL inh -4.3, Sfp inh -6% and ClpP mod 2.7%.
`NC(=O)CC(NC(=O)c1ccccc1)c1ccc(NCc2ccccc2)c([N+](=O)[O-])c1` (stereo not drawn) gave TRPV1 PAM 13, CtBP-E1A inh -11, gsp antag 11%, Menin-MLL FL inh -18, Sfp inh -11% and ClpP mod -2.6%.
CC(C)CC1NC(=O)N(CC(=O)Nc2ccc3c(c2)CCC3)C1=O (stereo not drawn) was read as TRPV1 PAM -10, gsp agonist -51%[inhibitor], CtBP-E1A inh 5, gsp antag 11%, Menin-MLL FL inh -5.8 and Sfp inh 17%.
For Cc1ccsc1C1C2=C(CC(C)(C)CC2=O)Nc2ncnn21 (stereo not drawn) the results were gsp agonist inconclusive, CtBP-E1A inh 0, gsp antag -4%, Menin-MLL FL inh 10, Sfp inh -7% and ClpP mod -14%.
Screening Cc1cccc(C)c1Nc1nnc(SCC(=O)NC2CCS(=O)(=O)C2)s1 (stereo not drawn) returned TRPV1 PAM 2, gsp agonist -27%, CtBP-E1A inh 12, gsp antag -16%, Menin-MLL FL inh 13, Sfp inh -12% and ClpP mod -0.8%.
CCCS(=O)(=O)c1nc(S(=O)(=O)c2ccc(C)cc2)c(NCCCN2CCCC2=O)s1 was read as TRPV1 PAM inconclusive, gsp agonist 2.8µM*, CtBP-E1A inh 7, gsp antag -4%, Menin-MLL FL inh 5.7, Sfp inh 11% and ClpP mod -0.5%.
For CCN(CC)C(=O)Cn1cc(S(=O)(=O)CC(=O)NCc2ccccc2)c2ccccc21 the results were TRPV1 PAM 2, gsp agonist -7%[15.4 µM], CtBP-E1A inh 2, gsp antag -2%, Sfp inh 10% and ClpP mod 1.4%.
For COC(=O)[C@@]1(C)CC[C@]2(C)CC[C@@]3(C)C(=CC(=O)C4[C@@]5(C)CC[C@H](O)C(C)(C)[C@@H]5CC[C@]43C)[C@H]2C1 (stereo partly drawn) the results were TRPV1 PAM -11, gsp agonist 1%, CtBP-E1A inh -6, gsp antag 8%, Menin-MLL FL inh 6.6, Sfp inh -10% and ClpP mod -3.9%.
Cc1ccc([N+](=O)[O-])cc1N=Nc1c(C)[nH]n(C(N)=S)c1=O was read as TRPV1 PAM -3, gsp agonist -13%, gsp antag -11%, Menin-MLL FL inh -1.2, Sfp inh 10% and ClpP mod 2.3%.
`Cc1ccc(S(=O)(=O)NN2C(=O)c3ccccc3NC2c2ccccc2)cc1` (stereo not drawn) gave TRPV1 PAM -6, gsp agonist -28%, CtBP-E1A inh 8, gsp antag -8%, Menin-MLL FL inh 0.7 and Sfp inh 16%.
For CCc1ccccc1NC(=S)N(CCOC)C(C)c1ccco1 (stereo not drawn) the results were TRPV1 PAM -11, gsp agonist -8%[15.4 µM], CtBP-E1A inh 1, gsp antag 12%, Menin-MLL FL inh 8.3 and Sfp inh 11%.
`Cc1cccc(C)c1NC(=O)CSc1nnc(-c2ccco2)n1N` gave TRPV1 PAM -2, gsp agonist -26%, CtBP-E1A inh 0, gsp antag 7%, Menin-MLL FL inh 0.4, Sfp inh 18% and ClpP mod 1.6%.
CC12CC(NC(=O)N1c1cccc(C(=O)N3CCN(c4ccccc4F)CC3)c1)c1ccccc1O2 (stereo not drawn) was read as TRPV1 PAM 14, gsp agonist -28%, CtBP-E1A inh -2, gsp antag -15%, Menin-MLL FL inh 0.1, Sfp inh 1% and ClpP mod -0.7%.
Cc1ccc(N2CC(NS(=O)(=O)c3cccs3)CC2=O)cc1C (stereo not drawn) was read as TRPV1 PAM -12, gsp agonist -8%, CtBP-E1A inh 11, gsp antag -15% and ClpP mod 1.1%.
COc1cc2oc3cc(C#Cc4ccc(N)cc4)ccc3c(=O)c2cc1OC was read as gsp agonist inconclusive, CtBP-E1A inh 10, gsp antag -8% and ClpP mod -16%.
For O=C(NCc1ccc(OC(F)(F)F)cc1)C1CC2Cn3c(nc4ccccc43)C2N1Cc1ccccc1 (stereo not drawn) the results were TRPV1 PAM 18, gsp agonist 1%, CtBP-E1A inh 6, gsp antag -12%, Menin-MLL FL inh -3.0, Sfp inh 13% and ClpP mod 0.5%.
CN(C)CCN(Cc1ccccc1)S(=O)(=O)c1ccc2c(c1)n(C)c(=O)c(=O)n2C was read as gsp agonist 29%[15.4 µM], CtBP-E1A inh 2, gsp antag 4%, Menin-MLL FL inh 5.5 and Sfp inh -12%.
Screening COCCn1c(SCC(=O)Nc2ccc3c(c2)OCCO3)nnc1C(C)C returned TRPV1 PAM 2, gsp agonist 8%[15.4 µM], CtBP-E1A inh -9, gsp antag -7%, Menin-MLL FL inh 0.6, Sfp inh 18% and ClpP mod 1.0%.
CC1(C)CC2c3cccc(C(=O)O)c3C(=O)N2c2c1ccc1ccccc21 (stereo not drawn) was read as TRPV1 PAM 2, gsp agonist -32%[inhibitor], CtBP-E1A inh 43, gsp antag 15%, Menin-MLL FL inh 1.8, Sfp inh 7% and ClpP mod -5.2%.
Screening CCC1(C)Cc2c(sc(NC(=S)NC(=O)c3ccccc3)c2C#N)CO1 (stereo not drawn) returned TRPV1 PAM 26, gsp agonist -1%[15.4 µM], CtBP-E1A inh -1, gsp antag -5%, Menin-MLL FL inh -1.3 and Sfp inh -26%.
For COc1cc2c(-c3ccccc3O)nc3c(c(C)nn3-c3ccccc3)c2cc1OC the results were TRPV1 PAM 3, gsp agonist inconclusive, CtBP-E1A inh -14, gsp antag 1%, Menin-MLL FL inh 4.5, Sfp inh 16% and ClpP mod -29%&-3.3%.
`Cc1cc(NC(=O)c2ccc3c(c2)OCO3)no1` gave TRPV1 PAM -4, gsp agonist -4%, CtBP-E1A inh 5, gsp antag 8%, Menin-MLL FL inh 0.6, Sfp inh 16% and ClpP mod -11%.
Screening CCOc1cc(/C=C2\SC(=Nc3ccc(CC)cc3)NC2=O)ccc1OCC(=O)O returned TRPV1 PAM 0, gsp agonist 34%[15.4 µM], CtBP-E1A inh -2, gsp antag 3%, Menin-MLL FL inh 9.5 and Sfp inh 2%.
For CCCc1nnc(NC(=O)CCN2C(=O)c3ccccc3C2=O)s1 the results were TRPV1 PAM 22, gsp agonist 3%, CtBP-E1A inh 8, gsp antag 23%, Menin-MLL FL inh 3.5, Sfp inh 15% and ClpP mod 0.7%.
For CC(C)N(C)C1CCN(S(=O)(=O)c2ccc(-c3ccc(=O)[nH]n3)s2)CC1 the results were TRPV1 PAM 1, gsp agonist 1%, CtBP-E1A inh -8, gsp antag 7%, Menin-MLL FL inh -0.3, Sfp inh 4% and ClpP mod -12%.
For COc1ccc(-n2c(SCC(N)=O)nnc2-c2ccc(NS(=O)(=O)c3ccc(C)cc3)cc2)cc1 the results were TRPV1 PAM 8, gsp agonist -13%, CtBP-E1A inh -26, gsp antag -21%, Menin-MLL FL inh 0.4, Sfp inh -23% and ClpP mod 0.9%.
Screening CN(C)CCC#CC1(O)c2ccccc2-c2ccccc21 returned TRPV1 PAM -2, gsp agonist -14%, gsp antag 14%, Menin-MLL FL inh -1.4, Sfp inh 3% and ClpP mod 0.3%.
For CC(C)OC(=O)c1cccc(C(=O)O)n1 the results were TRPV1 PAM -8, gsp agonist -4%, CtBP-E1A inh 2, gsp antag -5%, Menin-MLL FL inh 1.2, Sfp inh 50µM* and ClpP mod 0.3%.
`Cc1coc2c1c(C)cc1oc(=O)c(CC(=O)N[C@@H](C)C(=O)O)c(C)c12` gave TRPV1 PAM 2, gsp agonist -32%[inhibitor], CtBP-E1A inh 0, gsp antag 2%, Menin-MLL FL inh -8.6, Sfp inh 12% and ClpP mod 3.4%.
For Cn1nnnc1SCCNCc1ccc(Cl)cc1 the results were TRPV1 PAM 6, gsp agonist -15%, CtBP-E1A inh -1, gsp antag 16%, Menin-MLL FL inh -1.7, Sfp inh -3% and ClpP mod -2.0%.

Assay outcomes as filed in PubChem.
